# miR-21 FLuc = qHTS Assay for Modulators of miRNAs and/orActivators of miR-21. HeLa miR-21 FLuc reporter, luciferase, 48 h. Potency, µM (titrated, usually from 38.3 µM), inactives show top-dose reporter change, positive = more light. 340,000 tested, under 10 active. AID 2288, 2010; active = well fitted rising curve with a large enough effect; inconclusive = small, poorly fitted or top-dose-only effect; inactive = no such curve, though single readings can be large or run the other way;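 further: % of control where 0% means no effect; miR-21 action dims this reporter so a rising signal means less miR-21 action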
#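 Luminescence from a firefly luciferase reporter carrying a miR-21 binding site downstream, stably expressed under a CMV promoter in HeLa cells that make miR-21 endogenously, reports miRNA modulation after 48 h compound exposure up to approximately 40uM final.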
# GLA inh pH 4.5 = qHTS Assay for Inhibitors of Human alpha-Galactosidase at pH 4.5; Alpha-galactosidase A (Homo sapiens), P06280; purified enzyme, 4-MU-alpha-Gal fluorescence, pH 4.5; activity change, negative = inhibition, % at 105 µM; 230,000 tested, under 10 active; AID 1467, 2008; inconclusive = small, poorly fitted or top-dose-only inhibition, or a rising curve; inactive = flat fitted curve, though single readings scatter; no compound was filed as active;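 further: 0% = full activity with enzyme and -100% = basal without enzyme; dose as in the result columns while the protocol names 77 µM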
# Rango complex inh = qHTS Assay for Inhibitors of Rango (Ran-regulated importin-beta cargo) - Importin beta complex formation; Importin subunit beta-1 (Homo sapiens), Q14974; 340,000 tested, 0.031% active; Potency, µM (top dose mostly 92.2 µM), inactives show top-dose inhibition of complex formation; Rango CFP/YFP FRET sensor + importin beta, 45 min; AID 540263, 2011; active = rising FRET ratio curve, often small or poorly fitted; inconclusive = mostly compound fluorescence or quenching in the first reads; inactive = flat curves in all reads;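 further: potency means the concentration at half of the fitted maximal effect; 0% = DMSO wells and 100% = buffer wells lacking importin beta; nearly all actives have a fitted effect of over 15% in size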
# Target sequence (Q14974 whole entry, looked up): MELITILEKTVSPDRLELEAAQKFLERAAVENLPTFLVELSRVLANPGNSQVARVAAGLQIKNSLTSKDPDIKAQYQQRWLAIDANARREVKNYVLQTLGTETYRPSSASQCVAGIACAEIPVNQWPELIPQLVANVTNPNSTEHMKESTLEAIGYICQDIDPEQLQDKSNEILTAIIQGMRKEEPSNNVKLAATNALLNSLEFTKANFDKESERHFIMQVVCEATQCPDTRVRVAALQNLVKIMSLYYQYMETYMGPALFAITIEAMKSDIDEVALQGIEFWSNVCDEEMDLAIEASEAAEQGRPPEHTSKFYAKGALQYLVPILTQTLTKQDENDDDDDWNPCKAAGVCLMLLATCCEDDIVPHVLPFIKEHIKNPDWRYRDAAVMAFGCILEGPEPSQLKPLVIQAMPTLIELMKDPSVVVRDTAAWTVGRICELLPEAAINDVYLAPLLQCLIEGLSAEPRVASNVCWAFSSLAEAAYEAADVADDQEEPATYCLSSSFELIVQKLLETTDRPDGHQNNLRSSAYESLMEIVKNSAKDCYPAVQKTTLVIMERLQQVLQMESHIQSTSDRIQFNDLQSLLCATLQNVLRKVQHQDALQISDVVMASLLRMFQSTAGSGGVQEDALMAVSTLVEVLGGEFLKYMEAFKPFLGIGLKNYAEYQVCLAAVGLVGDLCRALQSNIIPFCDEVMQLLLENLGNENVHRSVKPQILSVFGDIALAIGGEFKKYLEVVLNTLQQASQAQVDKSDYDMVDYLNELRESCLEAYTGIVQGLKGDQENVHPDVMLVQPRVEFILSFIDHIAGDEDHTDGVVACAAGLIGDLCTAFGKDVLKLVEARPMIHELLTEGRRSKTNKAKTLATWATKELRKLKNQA
#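 FRET biosensor (snurportin 1 IBB flanked by EYFP and cerulean), 50 nM, with compound 5 min, then 0.125 microM importin beta in PBS, 1 mM DTT, 0.02% Tween-20, 0.1% BSA. CFP/YFP ratio read after 45 min at room temperature; pre-read flags interference.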
# Rango release inh = qHTS Assay for Inhibitors of RanGTP induced Rango (Ran-regulated importin-beta cargo) - Importin beta complex dissociation; Potency, µM (top dose mostly 46.1 µM), without a hit: at the highest dose activity change, negative = inhibition; 340,000 tested, 0.071% active; Biochemical FRET Rango-importin beta, RanGTP-induced dissociation; Snurportin-1 (Homo sapiens) + GTP-binding nuclear protein Ran (Homo sapiens) + Importin …; active means falling FRET ratio curve, often poorly fitted, with flat reads before Ran was added; inconclusive means other falling curves, or compound fluorescence or quenching; inactive means flat or rising ratio curve;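 further: potency means the concentration at half of the fitted maximal effect; % of control where 0% means no effect; nearly all actives have a fitted effect of over 45% in size; -100% = wells without RanGTP and RCC1; the record marks most hits as doubtful in a second field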
#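 Recombinant Rango FRET biosensor (EYFP–snurportin 1 IBB–cerulean CFP10) at 0.1 uM premixed with 0.25 uM importin beta in PBS, 1 mM DTT, 0.02% Tween-20, 0.1% BSA. Compound added 5 min; RanGTP-RCC1 (0.6 uM Ran, 2 mM GTP, 0.2 uM RCC1) then triggers release, read at 45 min.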
# An asterisk follows results filed as active; ? = inconclusive; nt = no result given; & = joins results of further samples.
SMILES,miR-21 FLuc,GLA inh pH 4.5,Rango complex inh,Rango release inh
CC(CC(=O)O)CC(=O)Nc1nncs1 (stereo unspecified),0%,2,0.3%,-1%
CCOC(CNC(=O)c1ccc2c(c1)ncn2-c1cccc(F)c1)OCC,-11%,0,-0.4%,3%
CC1CCCN(C(=O)CCNS(=O)(=O)c2ccc3c(c2)c(=O)n(C)c(=O)n3C)C1 (stereo unspecified),3%,nt,1.7%,-1%
COCCN1CCC(CNCc2c(C(=O)N3CCCCC3)nc3c(C)cccn23)C1 (stereo unspecified),0%,-1,-1.5%,-14%
Cc1c(Cl)c([N+](=O)[O-])nn1CC(=O)NC(C)c1ccccc1 (stereo unspecified),-2%,nt,0.9%,0%
CCc1nnc(NC(=O)CSc2nc(-c3ccccc3)cc(-c3ccc(OC)cc3)c2C#N)s1,-7%,0,?,?
COC(=O)c1ccc(C2C(Oc3ccccc3C)C(=O)N2CCc2ccc(OC)c(OC)c2)cc1 (stereo unspecified),13%,-24,-1.7%,32%
CCOc1ccc(C(C)NC(=O)CN2C(=O)NC3(CCCCC3)C2=O)cc1OCC (stereo unspecified),nt,nt,1.0%,34%
COc1ccc2nc(NC(=O)c3cc(C)oc3C)sc2c1,-56%,1,-0.5%,-17%
COC(=O)/C=C/CSC1=N/C(=C/c2ccc(-n3cncn3)cc2)C(=O)N1,-5%,10,8.4%,-26%
CCOc1ccc(C(=O)NCC(=O)NCC(c2ccc(OC)cc2)N2CCOCC2)cc1OCC (stereo unspecified),nt,nt,-0.1%,0%
CC1C(=O)NN=C1C(=O)N/N=C/c1ccco1 (stereo unspecified),-29%,-11,-1.7%,-8%
CCC(Cc1ccccc1)NS(=O)(=O)c1csc(C(N)=O)c1 (stereo unspecified),0%,nt,2.6%,6%
C#CCOCCOCCOCCNc1nc(N2CCN(C(=O)[C@H](CCCCN)n3cc([C@@H](N)C(C)CC)nn3)CC2)nc(N2CCN(C(=O)[C@H](Cc3ccc(O)cc3)n3cc([C@@H](N)C(C)CC)nn3)CC2)n1 (stereo partly specified),1%,5,1.5%,2%
O=C(NCCN1CCN(C(=O)c2cccc(OC(F)F)c2)CC1)c1cccc(OC(F)F)c1,nt,nt,0.3%,10%
COc1cccc(S(=O)(=O)N2CCN(Cc3ccc4c(c3)OCO4)CC2)c1,-8%&-15%,nt,-1.3%,2%
COc1cc(NC2c3ncccc3C(=O)N2Cc2ccco2)cc(OC)c1OC (stereo unspecified),1%,-1,1.7%,11%
O=C(OCC(=O)N1CCC(Cc2ccccc2)CC1)c1cncc(Br)c1,nt,nt,-1.4%,5%
COC(=O)Nc1sccc1C(=O)Nc1sccc1C(=O)OC,-4%,-12,?,?
COCCn1c(SCC(=O)c2c(N)n(C)c(=O)n(C)c2=O)nc2ccccc21,5%,3,-1.6%,-4%
Cc1cc(C)c(C(=O)CC(=O)c2ccccc2Cl)c(O)c1,10%,nt,6.5%,1%
Clc1ccc(-c2nnc(-c3ccccc3)o2)c(Cl)c1,-56%,-15,-0.6%,3%
CC(C)n1c(-c2cccnc2)nc2cnccc21,14%,-8,-0.8%,-24%
Cc1cc(NC(=O)c2cncc(Br)c2)ccc1NC(=O)c1cc2ccccc2o1,1%,nt,1.5%,13%
CCc1ccc(NC(=O)c2ccccc2NC(=O)C2CCCO2)cc1 (stereo unspecified),-42%,2,3.1%,10%
CCOc1ccc(NS(=O)(=O)c2ccc(OCC(=O)NCCCOC)cc2)cc1,0%,-4,-4.1%,4%
O=C(O)CC1(O)C(=O)N(Cc2ccccc2)c2ccccc21 (stereo unspecified),0%,1,3.2%,-7%
CN(CCC#N)C(=O)COC(=O)/C=C/c1ccc2c(c1)OCO2,-6%,-3,-2.7%,23%
Cc1nc(N/N=C/c2ccc(O)cc2)c2cnn(-c3ccccc3)c2n1,0%,-8,-0.7%,0%
Cc1ccc(Cn2cnc3c(cnn3-c3ccc(F)cc3)c2=O)cc1,2%,2,0.7%,30%
CCCCNS(=O)(=O)c1ccc2nc(SCC(=O)c3ccccc3OC)[nH]c2c1,23%,-12,0.7%,0%
Cc1nnc(SCC(=O)Nc2ccccc2C(=O)NC2CC2)s1,-1%,0,2.4%,-20%
O=C(Oc1c(CN2CCOCC2)cc(Cl)c2cccnc12)c1ccccc1F,?,4,-1.3%,-15%
CCN1C(=NCCc2ccccn2)N[C@@H](c2cccc(C(F)(F)F)c2)C(C(=O)OC)=C1C,10%,nt,1.5%,-4%
O=C(/C=C/NNC(=O)c1ccc(Br)cc1)c1ccccc1,-36%,1,-3.1%,?
O=C(NCC(=O)N1CCC(N2CCCCC2)CC1)C1CCCCC1,-1%,-12,1.3%,6%
Cc1ccc(N2CC(C(=O)Nc3cccnc3)CC2=O)cc1Cl (stereo unspecified),1%,nt,-3.5%,-10%
Cc1ccc(S(=O)(=O)N2CCCOC2CNC(=O)C(=O)NCCN2CCOCC2)cc1 (stereo unspecified),1%,nt,0.7%,-11%
CCN(C(=O)c1cc2c(=O)n3ccccc3nc2n1CCCOC)C1CCCCC1,2%,nt,?,?
Cn1c(=O)c2c(nc(OCCc3ccccc3)n2C)n(C)c1=O,0%,-23,-0.9%,-8%
O=S(=O)(c1ccccc1)N1CCN(S(=O)(=O)N2CCCCCC2)CC1,0%,nt,0.2%,3%
O=C(c1cccc2c1C(=O)N(Cc1cccnc1)C2)N1CCN(c2ccccc2)CC1,2%,-4,3.9%,7%
FC(F)(F)c1cccc(-c2noc(CN3CCOCC3)n2)c1,-17%,0,1.3%,-15%
CC(C(=O)Nc1ccc(F)c(F)c1)N1CCN(C)CC1 (stereo unspecified),-5%,nt,-2.2%,-3%
CC1CCN(CC(CS(=O)(=O)c2ccc([N+](=O)[O-])cc2)N2CCC(C)CC2)CC1 (stereo unspecified),2%,-1,-2.7%,-6%
O=C(O)Cn1ccc2cc(S(=O)(=O)N3CCCCCC3)ccc21,-2%&1%,nt,0.8%,-1%
COc1ccc2nc(NC(=O)C3CC(=O)N(c4ccccc4)C3)sc2c1 (stereo unspecified),20%,nt,2.4%,-2%
O=S(=O)(NCCCCCNS(=O)(=O)c1ccc(F)cc1)c1ccc(F)cc1,23%,-3,-1.3%,0%
COc1ccc(C=O)cc1Cn1ccnc1C,0%,5,-6.3%,10%
CC(=O)N1c2ccc(S(=O)(=O)N3CCC(C(=O)N4CC(C)CC(C)C4)CC3)cc2CC1C (stereo unspecified),-2%,nt,-4.4%,3%
COc1ccc(NC(=O)NCCN2CCCCC2)cc1,-3%,nt,-0.7%,-8%
O=C(COC(=O)Cc1ccc([N+](=O)[O-])cc1)NC1CCCCCC1,nt,nt,-3.8%,-2%
COCCn1nnnc1C(CC(C)C)N1CCN(c2nc3ccccc3s2)CC1 (stereo unspecified),-3%,-14,-2.5%,1%
CC(C)OC(=O)C1CC=CCC1C(=O)Nc1ccc(Cl)cc1 (stereo unspecified),-3%,-3,2.4%,12%
COCCOC(=O)C1=C(C)N=C2SCCC(=O)N2C1c1cccc(Br)c1 (stereo unspecified),-4%,-3,1.2%,1%
O=C(C(Cc1ccccc1)n1cccc1)N1CCN(c2ccccc2)CC1 (stereo unspecified),22%,-13,-0.5%,1%
COc1ccccc1-c1nnc(NC(=O)c2ccc3c(c2)OCO3)s1,-9%,2,0.2%,?
CCCCC(=O)NC(=S)Nc1cccc(NC(=O)c2ccccc2)c1,-8%,-5,1.5%,-4%
CC(C)n1nnnc1SCC(=O)Nc1ccc2c(c1)OCCO2,-50%,-4,nt,nt
Cc1ccccc1S(=O)(=O)Cc1ccc(C(=O)NC2CCC(C)CC2)o1 (stereo unspecified),3%&0%,nt,3.1%,12%
# Carrying on.
SMILES,miR-21 FLuc,GLA inh pH 4.5,Rango complex inh,Rango release inh
COc1ccc(-c2n[nH]c(=S)n2-c2ccc(Br)cc2)cc1OC,-15%,nt,3.8%,-9%
Cc1nc2c(C)cccn2c(=O)c1NC(=O)c1ccco1,nt,nt,-1.5%,12%
Cn1c(N2CCCC2)nc2c1c(=O)n(Cc1cccc(F)c1)c(=O)n2C,-9%,-4,0.0%,9%
O=C(CN1CCSCC1)N1CCc2[nH]c3ccc(Br)cc3c2C1,-1%,-16,nt,nt
COc1cccc(NC(=O)COc2nc3ccccc3nc2C)c1,-11%,4,-0.4%,-8%
OCCNc1nc(N2CCCCC2)nc2ccccc12,-7%,nt,-0.1%,12%
Cc1cccc(C(=O)O/N=C2\CCS(=O)(=O)c3sccc32)c1,6%,5,-3.6%,26%
Cc1ccnc2nc(C(=O)OCC(=O)NCc3cccc(Cl)c3)nn12,nt,nt,-2.1%,11%
CC1CCN(C(=O)c2ccc3c(c2NCCO)C(=O)c2ccccc2C3=O)CC1,5%,-3,8.4%,-2%
COc1ccc(/C=N/NC(=O)CN2CCSCC2)cc1C,-7%,3,1.1%,7%
C=CCNc1nc2c(c(=O)n(C)c(=O)n2C)n1CC,-3%,2,2.3%,1%
C(=C\c1ccccc1)/C=N/Nc1nc2ccccc2s1,-54%,-11,?,-13%
NS(=O)(=O)c1ccc(N2CCOCC2)c(C(=O)NCc2cccs2)c1,nt,nt,2.5%,7%
O=c1/c(=C\c2cc([N+](=O)[O-])cc([N+](=O)[O-])c2O)sc2nc3ccccc3n12,-3%,-27,12%,-12%
Cc1ccc(-c2cc(C(=O)O)c3cc(Br)ccc3n2)s1,-26%&-23%,nt,1.3%&-0.9%,-6%&-6%
NC(=O)C1(N2CCCCC2)CCN(CC(=O)Nc2ccccc2Sc2ccccc2)CC1,-1%,-3,0.5%,-11%
COc1ccc(-c2nnc(SCC(=O)NC3CCCCC3)o2)cc1OC,-12%,4,-1.7%,-1%
O=C(CCCN1C(=O)c2ccccc2C1=O)Oc1ccc(Cl)cc1,8%,1,-0.9%,34%
O=C(Cn1[nH]c(=O)c2ccccc2c1=O)OCC(=O)c1ccccc1Cl,nt,nt,0.7%,-9%
CCOC(=O)CN1C(=O)N[C@@H](c2ccccc2)C(C(C)=O)=C1C,-7%,-17&6,1.4%,4%
CC(C)(C)c1csc(SCC(=O)Nc2ccc(Cl)cn2)n1,2%,-4,-0.1%,20%
COc1ccc2c(c1)N(C[C@H](C)CN(C)C)c1ccccc1S2,nt,nt,1.4%,4%
O=C(N/N=C/c1c(Cl)[nH]c2ccccc12)c1ccc2c(c1)OCCO2,-27%,-20,-1.2%,3%
Cc1oc2c(CN3CCOCC3)c(O)ccc2c(=O)c1-c1ccc(Br)cc1,-2%,2,-1.3%,1%
Cc1nn(-c2ccccc2)c(OC(=O)c2cccs2)c1S(=O)(=O)c1ccccc1,-1%,7,0.3%,-1%
CN(C(=O)COC(=O)c1cccc(Cl)c1)C1CCS(=O)(=O)C1 (stereo unspecified),nt,nt,-4.3%,0%
Cc1nc(SCC(=O)NC2CCCC2)[nH]c(=O)c1C,-4%,nt,-1.2%,-11%
Cc1ccc(NC(=S)NN2CCOCC2)c(C)c1,-3%,-7,0.1%,1%
O=C(Cc1ccccc1)Nc1ccc2[nH]ncc2c1,-8%,nt,3.9%,21%

# Screening data from PubChem BioAssay.

# Only part of the results is shown; count on the stated rates, not on these rows.
